hNpr1 antagonist: blocks ANP-stimulated signaling of human Npr1 receptor. P16066. HEK293 hNpr1 GloSensor cGMP, ANP-stimulated luminescence. Potency, µM (top dose mostly 46.3 µM), inactives show top-dose activity change, negative = inhibition, usual class: inhibitors. 76,000 compounds, 1.6% hits; active = well fitted inhibition curve with a large enough effect; inconclusive = small, poorly fitted or top-dose-only effect; inactive = no such curve, though single readings can be large or run the other way;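 also: nearly all actives have a fitted effect of over 60% in size; nearly all hits also lower the signal before the agonist is added; a reference antagonist and vehicle were the controls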
Target sequence (P16066 whole entry, looked up): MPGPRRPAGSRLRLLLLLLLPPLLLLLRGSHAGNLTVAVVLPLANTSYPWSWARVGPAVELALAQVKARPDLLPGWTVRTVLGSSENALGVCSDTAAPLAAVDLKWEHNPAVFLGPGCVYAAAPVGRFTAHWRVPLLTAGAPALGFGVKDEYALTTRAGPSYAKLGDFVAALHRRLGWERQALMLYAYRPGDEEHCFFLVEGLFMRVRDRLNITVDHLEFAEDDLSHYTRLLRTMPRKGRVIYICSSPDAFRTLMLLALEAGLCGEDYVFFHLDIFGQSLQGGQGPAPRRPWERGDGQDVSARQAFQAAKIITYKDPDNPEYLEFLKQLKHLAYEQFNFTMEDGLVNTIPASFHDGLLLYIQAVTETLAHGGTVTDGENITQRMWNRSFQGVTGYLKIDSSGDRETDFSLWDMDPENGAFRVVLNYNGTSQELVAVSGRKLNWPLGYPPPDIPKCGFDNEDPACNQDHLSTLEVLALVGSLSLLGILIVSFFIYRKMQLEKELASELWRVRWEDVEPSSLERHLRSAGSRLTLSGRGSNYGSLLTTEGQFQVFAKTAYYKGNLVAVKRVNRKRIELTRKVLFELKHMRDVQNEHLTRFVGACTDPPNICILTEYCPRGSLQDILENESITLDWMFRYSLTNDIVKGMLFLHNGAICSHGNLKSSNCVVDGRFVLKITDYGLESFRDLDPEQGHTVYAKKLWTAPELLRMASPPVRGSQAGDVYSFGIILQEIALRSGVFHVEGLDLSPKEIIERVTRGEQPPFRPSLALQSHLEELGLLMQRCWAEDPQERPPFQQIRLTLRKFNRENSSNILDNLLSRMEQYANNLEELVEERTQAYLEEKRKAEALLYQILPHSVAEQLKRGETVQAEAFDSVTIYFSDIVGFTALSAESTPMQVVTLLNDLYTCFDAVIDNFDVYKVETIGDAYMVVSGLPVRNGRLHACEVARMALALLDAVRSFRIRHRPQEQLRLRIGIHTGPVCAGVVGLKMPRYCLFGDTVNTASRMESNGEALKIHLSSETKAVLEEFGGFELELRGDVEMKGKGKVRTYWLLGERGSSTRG
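HEK293 cells stably expressing human Npr1 and cGMP GloSensor pGS-40F, loaded 2 h with 2% GloSensor reagent, given compound 30 min at room temperature. Luminescence read before and 20 min after 0.1 nM hNppA.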
The depositor's hits bear a star; ? = inconclusive; [ ] = another dose, or the depositor's remark. % is scaled to controls: 0 for no effect and ±100 for the full control effect; potency is read from the fitted curve at half-maximal effect. Only part of the results is shown; rates above refer to the full screens.

SMILES	hNpr1 antagonist
CCOC(=O)c1ccccc1NC(=O)Cn1ccn2nc3c(c2c1=O)CCCCC3	-2%
Cc1ccc(-c2noc(C3CCCN3Cc3ccccc3)n2)nn1 (stereo not drawn)	-1%
O=C(NCCC1=CCCCC1)C1CCN(c2cnc3nccnc3c2)CC1	-9%
COc1cc(NC(=O)C2CCc3sc(C(=O)N4CCOCC4)cc3C2)cc(OC)c1 (stereo not drawn)	-2%
O=C(O)CCn1ncc2cc(OCC3CCN(c4nccc(C(F)(F)F)n4)CC3)ccc21	3%
COCC1CN(C(=O)CCn2nc(C)cc2C)CC12CCOCC2 (stereo not drawn)	3%
CCOc1ccc(C(=O)NC2CCN(c3cc(-c4cccs4)[nH]n3)CC2)cc1OCC	-17%
Cn1c(Cn2ccnc2)nnc1C1CCN(S(C)(=O)=O)CC1	5%
COc1ccc(C(=O)N2CCC3(CC2)NC(=O)N(c2cccc(F)c2)N3)cc1	2%
Cc1ccc(-c2ncc(NC(=O)c3ccccc3F)cn2)cc1	?
O=C(CC1CCCCC1)N1CC(c2nnc(-c3ccncc3)o2)C2(CCOCC2)C1 (stereo not drawn)	8%
CCN1C(=O)C2(CCN(S(=O)(=O)c3ccc(C)c(F)c3)CC2)c2ccccc21	1%
O=C(c1ccc(C2CCNC2)cc1)N(Cc1ccccc1)CC1CCC1 (stereo not drawn)	-4%
Cc1ccc(-c2cn(C3CN(C(=O)C4CCC4)C3)nn2)cc1	-2%
CN1CC2(CCCN(CC3CC3)C2)c2cc(C(=O)NCCc3ccccc3)ccc21 (stereo not drawn)	-14%[70.6 µM]
COc1ccc([C@H]2C[C@@H](O)[C@@H](O)[C@@H]2NCc2cnn(C)c2)cc1	-3%[70.6 µM]
Cc1cccc(CC(=O)N2CCC3(CC2)CC(N(C2CC2)S(C)(=O)=O)CCO3)c1 (stereo not drawn)	5%
CN(Cc1ccc2nccnc2c1)C(=O)c1ccc(CCC(C)(C)O)cc1	-24%
O=S(=O)(N[C@@H]1C[C@H](Cn2cc(C3CC3)nn2)[C@@H](O)[C@H]1O)c1ccccc1	1%[70.6 µM]
c1ccc(O[C@H]2COCCN(c3nc4ccccc4o3)C2)nc1	-2%[70.6 µM]
O=C(CN1C(=O)C(c2ccccc2)=NC12CCCC2)N1CCN(c2ccccc2)CC1	13%
CCc1nnc2ccc(NCc3ccc(F)cc3)nn12	-3%
O=C(CCc1c[nH]c2ccccc12)N1CCC2(CCCCO2)CC1	-8%
CCOc1ccc(C2CC(=O)Nc3[nH]ncc32)c(OCC)c1C (stereo not drawn)	-11%
O=C(c1ccc(C2CCCNC2)cc1)N1CCN(C2CCOCC2)CC1 (stereo not drawn)	4%
COCCNC(=O)c1ccc2c(c1)N(C)C(CC(=O)NC1CCC1)CO2 (stereo not drawn)	-7%
OCCOCCn1cnc(-c2ccccc2)c1-c1ccccc1Cn1cccn1	-1%
NS(=O)(=O)CCCC(=O)N1CCCC(CCc2ccccc2F)C1 (stereo not drawn)	-13%
CC1=C(C(=O)OC(C)C)C(c2ccccc2Cl)N2C(CC(=O)N3CCOCC3)=CSC2=N1 (stereo not drawn)	14µM*
COc1cccc(CCc2ccccc2C(=O)N2CC[C@H](CO)[C@@H](O)C2)c1	3%
COc1ccc(C2(C(=O)N3CCC(c4ncc(C)n4C(C)C)C3)CC2)cc1 (stereo not drawn)	-22%
CCN(Cc1ccncc1)C(=O)c1c(OCC2CC2)cc(=O)n2c1CCCCC2	5%
CNC(=O)[C@@H]1CN(C(=O)CCc2cccc(OC)c2)C[C@H]1c1n[nH]c(C)n1	6%
C[C@@H](NC(=O)C1CC1)c1c(-c2ccc(F)cc2)noc1C(=O)O	1%[70.6 µM]
O=C(Cc1ccc(-n2cnnn2)cc1)N[C@@H]1COCC[C@@H]1OCc1ccccc1	-3%
Cc1cccc(CNC(=O)c2cc3n(n2)CC(c2ccc(Cl)cc2)OC3)c1 (stereo not drawn)	-26%
Cc1ccc(NC(=O)N2CCC(N3C(=O)C4(CCCCC4)C3c3ccncc3)CC2)cc1C (stereo not drawn)	5%
CC(=O)Nc1ccc(CN2CCC3(COc4ccccc4C(=O)N3)C2)cc1 (stereo not drawn)	-17%
Cc1ccc(S(=O)(=O)N2CC(C(=O)NC3CCCCC3)C3(CCOCC3)C2)cc1F (stereo not drawn)	0%
COc1ccc(CN2Cc3cc(NC(=O)c4ccccc4OC)ccc3OCC2=O)c(OC)c1	-15%
CC(=O)Nc1ccc(CN2CC3CCC(C2)N3c2ccc(C(F)(F)F)cc2)cc1	?
COc1ccc(C2(C(=O)N3CCC4(CC3)N(C)C(=O)CS4(=O)=O)CC2)cc1	-1%
CNC(=O)C1(NC(=O)c2ccc(CCC(C)(C)O)cc2)CCCCC1	-1%
COc1cccc(CC(=O)N2CCCCCCNC(=O)[C@H]3CCC[C@H]32)c1	9%
Cc1cc2c(-c3cccnc3)nc(-c3c(C)noc3C)cc2[nH]1	6%[70.6 µM]
C[C@@H]1CN(C(=O)c2cccc(C#N)c2)CC[C@@]1(O)C1CCOCC1	19%
O=[S+]([O-])(Nc1ccccc1)c1ccc2c(c1)OCCN(Cc1ccc(F)cn1)C2	-19%[70.6 µM]
CC[C@@H]1[C@@H](NC(=O)Cc2csc(C(C)=O)c2)[C@@H]2CCO[C@H]12	-5%
Cc1ccccc1C(=O)NC1CCN(c2cc(C(F)(F)F)ncn2)CC1	-15%
CCn1ccc(C(=O)N2CCC(F)(c3nc(-c4ccncc4)no3)CC2)n1	-13%
(list continues)
SMILES	hNpr1 antagonist
COC(=O)c1cccc(NC(=O)c2ccc3c(c2)N(C)C2CCCCCN2C3=O)c1 (stereo not drawn)	?
CNC(=O)c1ccn2nccc2c1	31%[activator][70.6 µM]
COc1cccc(S(=O)(=O)N2C[C@@H](C(N)=O)[C@H](C3CCN(C)CC3)C2)c1	4%
COc1ccc(CN2C(=O)CO[C@H]3CN(Cc4ccccc4)C[C@H]32)cc1	?
CCc1ccc(-c2nc(C3CC(=O)N(c4ccc(OC)cc4)C3)no2)cc1 (stereo not drawn)	-22%
COc1cccc(CC(=O)N2[C@@H]3CC[C@H]2CC(NC(=O)c2cnc(C)cn2)C3)c1 (stereo partly drawn)	6%
CNC(=O)c1noc(CN2CCCC(CCc3ccccc3F)C2)n1 (stereo not drawn)	-5%
CCNC(=O)C1N(C(C)C)C(=O)C12CCCCC2 (stereo not drawn)	-1%
CCCCC(=O)Nc1ccc(C)cc1NC(=O)COc1cccnc1	1%
Cc1nn(C)cc1CN1C[C@@H](CO)[C@H](c2ccccn2)C1	-2%
COc1cccc(S(=O)(=O)N2CC(N(C3CCOCC3)S(C)(=O)=O)C2)c1	0%
CC(CNC(=O)C1CCN(C(=O)c2ncn3c2COC(c2ccc(F)cc2)C3)CC1)c1ccccc1 (stereo not drawn)	-2%
O=C(Cc1cccc(F)c1)N1CCC2(CCC(=O)N(CC3CC3)CC2)CC1	-17%
COCC(=O)N[C@@H]1CN(C(=O)NCc2ccccc2)CC[C@@H]1c1nc(C)no1	8%
CCCOc1cc(C)c2c(c1C)C[C@H]([C@H](C)C(=O)NCCOC)CC2	1%[70.6 µM]
O=C(C1CCCCC1)N1CCC2(CC1)NC(=O)N(c1cccc(F)c1)N2	7%
CCCC1c2nccn2CCCN1C(=O)Cc1c(C)noc1C (stereo not drawn)	4%
Cn1c(CN2CCN3C(=O)NC[C@H]3C2)nc2ccccc21	2%[70.6 µM]
COCC1CN(C(C)=O)CC12CCN(Cc1cccc(Br)c1)CC2 (stereo not drawn)	-19%
CNC(=O)[C@@H]1CN(Cc2ccc(OC)c(OC)c2Cl)C[C@H]1CO	-8%
COc1cc(C(=O)NC2CCCN(c3cc(-c4ccccc4)[nH]n3)C2)cc(OC)c1OC (stereo not drawn)	-10%
O=C(c1ccccc1Cl)N1CCC2(CC1)NC(=O)N(Cc1ccc(F)cc1)C2=O	?
COCCNC(=O)C(NC(=O)c1ccc(OC)cc1)C1CCN(C(=O)c2ccco2)CC1 (stereo not drawn)	-6%
CN1CCN(c2cc(N3CCCC(CN4CCCCC4)C3)nc(N)n2)CC1 (stereo not drawn)	3%
O=C(c1ccoc1)N1CCN(Cc2ccc(=O)n(CC3CC3)c2)CC1	-11%
O=C(CN1CC2CC(C1)[C@H]1CCCC(=O)N1C2)NCc1ccc(Cl)cc1 (stereo partly drawn)	0%
O=C(Cc1ccc2c(c1)OCO2)N1CCc2c(n(CCOc3ccccc3)n(-c3ccccc3)c2=O)C1	-9%
CC1(C)[C@H](Cc2cc(CO)on2)C[C@@H]1NC(=O)c1ccco1	0%[70.6 µM]
O=C(C1CCC1)N1CCC(c2nc(-c3ccc4nc[nH]c4c3)no2)CC1	-2%
O=C(Cn1cncn1)N1CCN(Cc2ccccn2)[C@@H]2CS(=O)(=O)C[C@@H]21	2%
COc1ccc(S(=O)(=O)N[C@H](C)c2onc(-c3ccc(F)cc3)c2C(=O)O)cc1	4%[70.6 µM]
CCCN1CC2(CCN(C(=O)c3ccc(C)nc3)CC2)CC1C(=O)O (stereo not drawn)	3%
CCCn1cnnc1C(C)NC(=O)Cc1c(C)[nH]c2c(C)cc(C)cc12 (stereo not drawn)	7%
CCNC(=O)N(C1CC1)C1CCOC2(CCN(C(=O)CCc3cccc(OC)c3)CC2)C1 (stereo not drawn)	-2%
Cc1cc(C)n2ncc(C(=O)NCc3cc4n(n3)CCN(C(=O)N(C)C)C4)c2n1	3%
COc1ccc(C(=O)N2CCC(c3noc(-c4cnccn4)n3)C2)cc1OC (stereo not drawn)	7%
COCc1nc2nc(-c3ccccc3)c(Nc3ccc(F)cc3)cc2n1C	-7%[70.6 µM]
O=C(c1cc(=O)[nH]c(=O)[nH]1)N1CCc2[nH]nc(-c3ccc(F)c(F)c3)c2C1	0%
c1cncc(-c2cc(-c3cccc4cc[nH]c34)cn3cncc23)c1	-23%[70.6 µM]
CCc1ccccc1NC(=O)Cn1ccn2nc3c(c2c1=O)CCCC3	-6%
CCc1ccc(NC(=O)N2CCc3c(nc4cc(-c5ccc(OC)cc5)[nH]n4c3=O)C2)cc1	-9%
O=C(NCc1cccs1)c1ccc(OC2CCN(Cc3ccccn3)CC2)cc1	13%
Cc1ccc(NC(=O)c2ccc3c(c2)N(C)C2CCCCCN2C3=O)cc1C (stereo not drawn)	?
OC[C@@H]1CNC[C@H]1C1CCN(Cc2cccc(Cl)c2)CC1	-2%
COc1ccc(C2(C(=O)N3CCCC(c4nn(C)c(=O)n4C(C)C)C3)CC2)cc1 (stereo not drawn)	5%
COCC1CN(C(=O)C2(c3ccccc3)CC2)CC12CCOCC2 (stereo not drawn)	0%
CCOc1ccccc1C1NC(=O)N(CC(=O)Nc2ccc(Cl)cc2F)C2=C1C(=O)OC2 (stereo not drawn)	-12%
COc1cc(F)ccc1-c1nc(N2CCOCC2)cc2c1CN(CC(F)(F)F)C2=O	2%[70.6 µM]
Cc1nc(C)c(C(=O)N2CCCCCCNC(=O)CC2)s1	1%
Cc1ccc(C)c(-n2nc(-c3c(C)nc4scc(CC(=O)N5CCCC5)n4c3=O)cc2C)c1	3%
The results go on:
SMILES	hNpr1 antagonist
COCC1CN(S(=O)(=O)c2cccc(C)c2)CC12CCOCC2 (stereo not drawn)	-3%
COCCCNC(=O)CCc1nc(C2CCCN2S(C)(=O)=O)no1 (stereo not drawn)	-5%
O=C(O)[C@H]1C[C@@H](C(=O)NCc2cccnc2)CN(Cc2ccccn2)C1	1%
CN1CCCN(C(=O)c2ccccc2OC(F)(F)F)c2ccccc21	-5%
O=C1CCN(C(=O)c2ccc3ccccc3n2)CCCC(CO)CCN1 (stereo not drawn)	-2%
O=C(O)C1Cc2nc[nH]c2CN1C(=O)c1cccc(-n2cccn2)c1 (stereo not drawn)	3%
O=C([C@H]1CCC[C@H](O)C1)N(CCc1ccc(Cl)cc1)Cc1cccnc1	4%
CC1Oc2ccc(NC(=O)c3ccc([N+](=O)[O-])cc3)cc2CN(Cc2ccccc2)C1=O (stereo not drawn)	-15%
CCc1ccccc1NC(=O)Cn1cccc1-c1nc(-c2ccc(OC)c(F)c2)no1	2%
CN1CC[C@H]2CN(C(=O)c3ccccc3-n3cccn3)C[C@@]2(C(=O)O)C1	3%
